Screens: PubChem, National Center for Advancing Translational Sciences (NCATS)
PINK1 modulator: changes PINK1 expression. PINK1 immunofluorescence, high-content cytometry, 24 h. Potency, µM (series often up to 76.6 µM), without a hit: top-dose activation (PINK1 increase), actives largely listed as activators. 0.2% of 410,000 active. AID 624263; active = well fitted activation curve with a large enough effect; inconclusive = small, poorly fitted or top-dose-only effect; inactive = flat fitted curve, though single readings scatter; cell line not stated here;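 note: % of control where 0% means no effect; nearly all actives have a fitted effect of over 65% in size; a mitochondrial uncoupler was the plate control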
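PINK1 protein, normally rapidly degraded, was detected by immunofluorescence after 24 hour compound treatment of a stable cell line. Titration data (5 concentrations) came from laser-scanning cytometry, with CCCP-treated wells as controls.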
ClpP mod: qHTS Assay for Activators of ClpP; AID 651965, 2013; 1.9% of 340,000 active; purified B. subtilis ClpP, FRET peptide cleavage, 20 min; Potency, µM (top dose mostly 57.5 µM), for the others: top-dose activity change, negative = active; active = well fitted falling curve with a large enough effect; inconclusive = small, poorly fitted or top-dose-only effect; inactive = no such curve, though single readings can be large or run the other way; note: the source files actives as falling curves though it sought activators and does not explain the sign; nearly all actives have a fitted effect of over 65% in size; many hits overshoot -100%
Target sequence (P80244 whole entry, looked up): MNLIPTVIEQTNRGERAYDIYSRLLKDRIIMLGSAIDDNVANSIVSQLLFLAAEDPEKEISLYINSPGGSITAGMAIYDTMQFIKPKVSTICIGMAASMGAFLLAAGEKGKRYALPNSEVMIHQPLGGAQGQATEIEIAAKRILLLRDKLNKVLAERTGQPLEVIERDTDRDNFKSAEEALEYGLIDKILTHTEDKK
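ClpP 10 microg/mL final, pH 8 Tris/KCl buffer with BSA, glycerol, Tween-20; compound pinned in; FRET-FV substrate; RT 20 min; Ex320/Em430; ΔFRET vs ADEP 5.8 microM, DMSO, no enzyme.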
* = called active by the depositor. Potency is the fitted concentration of half-maximal effect.

`CCOc1ccc(-c2cc(CCCC(=O)NCCc3ccc(SC)cc3)no2)cc1` gave PINK1 modulator 2.1% and ClpP mod -3.4%.
O=C(NCc1ccccc1)c1ccc(Cn2c(=O)c3cccn3c3cccnc32)cc1 was read as PINK1 modulator 3.8% and ClpP mod -1.9%.
For Cc1ccc(C)c(N2CCN(C(=O)Cn3ncc4c(=O)oc5ccccc5c43)CC2)c1 the results were PINK1 modulator 0.0% and ClpP mod 2.2%.
For CCOc1cc(OCC)cc(C(=O)N2CCC[C@H]2C(=O)N2CCC[C@H]2C(=O)NCc2ccc(F)cc2F)c1 the results were PINK1 modulator 0.8% and ClpP mod 0.9%.
O=C(NC1CC(=O)N(c2cccc(F)c2)C1)c1cc2ccccc2o1 (stereo not given) was read as PINK1 modulator 0.1% and ClpP mod -2.8%.
Screening CCOC(=O)c1c(C)[nH]c(CCC(=O)NCc2ccc(F)cc2)c1C returned PINK1 modulator 1.4% and ClpP mod -1.5%.
For Clc1cccc(-c2noc3ncnc(NC4CCCCC4)c23)c1 the results were PINK1 modulator 0.0% and ClpP mod -2.5%.
Cc1ccccc1NC(=O)CCC(=O)N1CCSc2ccccc21 was read as PINK1 modulator -1.0% and ClpP mod -0.2%.
Screening O=C(OCc1ccco1)c1ccc2c(c1)N(Cc1cccc(F)c1)C(=O)c1ccccc1S2 returned PINK1 modulator 0.7% and ClpP mod -4.3%.
CN(C)C1(CNC(=O)COc2ccc([N+](=O)[O-])cc2)CCCCC1 was read as PINK1 modulator -0.5% and ClpP mod -2.3%.
`Cc1cc2c(cc1S(=O)(=O)N(C)CC(=O)Nc1cccc(C#N)c1)OCC(=O)N2` gave PINK1 modulator 14% and ClpP mod 1.1%.
Screening CCCN(Cc1cccs1)C(=O)Nc1ccc(F)c(Cl)c1 returned PINK1 modulator 0.3% and ClpP mod 1.0%.

The final two compounds of the part above open the next one.
`Cc1cc2c(cc1S(=O)(=O)N(C)CC(=O)Nc1cccc(C#N)c1)OCC(=O)N2` gave PINK1 modulator 14% and ClpP mod 1.1%.
Screening CCCN(Cc1cccs1)C(=O)Nc1ccc(F)c(Cl)c1 returned PINK1 modulator 0.3% and ClpP mod 1.0%.
For COCCCNc1nc(NCc2cccc(Cl)c2)c2cnn(C)c2n1 the results were PINK1 modulator 1.0% and ClpP mod -13%.
Screening CCc1nn(CC(=O)Nc2ccc(NC(C)=O)cc2)c(=O)c2cc3sccc3n12 returned PINK1 modulator 3.3% and ClpP mod -7.3%.
`O=C(Nc1cc(F)ccc1F)C1CCN(c2nc3ccccc3n3cccc23)CC1` gave PINK1 modulator -0.3% and ClpP mod inconclusive.
For Cc1ccc(-n2ncc3c(Nc4cccc(C)c4C)ncnc32)cc1 the results were PINK1 modulator 2.0% and ClpP mod inconclusive.
Screening COc1ccc(OC)c(S(=O)(=O)NCCc2csc3nc(-c4ccccc4)nn23)c1 returned PINK1 modulator 1.5% and ClpP mod -0.2%.
Screening Cc1ccc(Cl)cc1-n1ncc2c(N3CCC(C)CC3)ncnc21 returned PINK1 modulator 5.4% and ClpP mod inconclusive.
Screening Cc1oc(-c2ccccc2Cl)nc1CSc1nc2ncccc2[nH]1 returned PINK1 modulator 0.7% and ClpP mod 2.8%.
Cc1cccc(-c2nc(S(=O)(=O)c3ccc(F)cc3)c(N3CCN(c4ccccc4)CC3)o2)c1 was read as PINK1 modulator -0.8% and ClpP mod -7.4%.
`CCCCCCn1cc(CN(C)C2CN(Cc3cn(CCCCCC)nn3)S(=O)(=O)C2)nn1` (stereo not given) gave PINK1 modulator -0.3% and ClpP mod 0.2%.
Cc1oc(-c2ccccc2)nc1CNC(=O)Nc1ccccc1 was read as PINK1 modulator 1.6% and ClpP mod 3.2%.
CCOCCCn1c(SCC(=O)Nc2ccc(CC)cc2)nc2ccccc2c1=O was read as PINK1 modulator 1.0% and ClpP mod -14%.
For Cc1cc2c(cc3c(SCc4ccc(Cl)cc4)nncn32)o1 the results were PINK1 modulator 2.4% and ClpP mod 7.5%.
For Cc1ccc(OCC(=O)Nc2cccc(C(=O)OCc3cc(=O)n4nc(C)sc4n3)c2)cc1 the results were PINK1 modulator 0.6% and ClpP mod -0.2%.
For Cc1ccc(C(=O)NCc2nnnn2-c2ccc(C)c(C)c2)cc1 the results were PINK1 modulator -0.6% and ClpP mod -0.1%.
`O=C(Cn1ncc2c(=O)oc3ccccc3c21)Nc1cc(F)ccc1F` gave PINK1 modulator 0.3% and ClpP mod -2.9%.
Screening CCOC(=O)Cc1c(-c2cccc(Cl)c2)nc2c3ccccc3ccn12 returned PINK1 modulator 1.1% and ClpP mod inconclusive.
Screening Cc1ccc(S(=O)(=O)c2nc(-c3cccc(Br)c3)oc2N2CCCCCC2)cc1 returned PINK1 modulator -0.6% and ClpP mod -19%.
`Cc1c(Cl)cccc1-n1ncc(C(=O)NCCN2CCN(C)CC2)c1C1CCN(C(=O)OC(C)(C)C)CC1` gave PINK1 modulator 0.2% and ClpP mod 2.2%.
Screening O=C(C1=NOC2(C1)C(=O)N(Cc1ccccc1)c1ccccc12)N1CCOCC1 (stereo not given) returned PINK1 modulator -0.1% and ClpP mod -1.7%.
Cc1ccc(Cl)cc1N1CCN(C(=O)COCc2cc(-c3ccc4c(c3)OCO4)on2)CC1 was read as PINK1 modulator 2.3% and ClpP mod inconclusive.
CC1Cc2ccccc2N1S(=O)(=O)c1nnc(NC(=O)c2ccccc2)s1 (stereo not given) was read as PINK1 modulator 1.4% and ClpP mod 0.3%.
Screening CC(OC(=O)c1ccccc1OCC(=O)Nc1ccc(Br)cc1)C(=O)NC1CCCC1 (stereo not given) returned PINK1 modulator 0.7% and ClpP mod -4.3%.
`O=C(Nc1ccc(Cl)cn1)c1cnn2c1NC(=C1CC1)C=C2C(F)F` gave PINK1 modulator 0.7% and ClpP mod 70%.
Screening CCc1ccc(-n2nc(C)c3c(C)cc(=O)n(CC(=O)N(CC)Cc4ccccc4)c32)cc1 returned PINK1 modulator -0.3% and ClpP mod -8.0%.

Filtered by structure: the compounds so far with an aryl thioether with sulfur outside any ring.
`CCOc1ccc(-c2cc(CCCC(=O)NCCc3ccc(SC)cc3)no2)cc1` gave PINK1 modulator 2.1% and ClpP mod -3.4%.
Screening Cc1oc(-c2ccccc2Cl)nc1CSc1nc2ncccc2[nH]1 returned PINK1 modulator 0.7% and ClpP mod 2.8%.
CCOCCCn1c(SCC(=O)Nc2ccc(CC)cc2)nc2ccccc2c1=O was read as PINK1 modulator 1.0% and ClpP mod -14%.
For Cc1cc2c(cc3c(SCc4ccc(Cl)cc4)nncn32)o1 the results were PINK1 modulator 2.4% and ClpP mod 7.5%.

The list goes on.
Screening COc1ccc(C(=O)O)cc1Nc1nc2ccc(C)cc2n2cnnc12 returned PINK1 modulator 0.2% and ClpP mod inconclusive.
Cc1ccc2sc(N3CCN(C(=O)C4COc5ccccc5O4)CC3)nc2c1C (stereo not given) was read as PINK1 modulator 0.5% and ClpP mod -1.0%.
For CCOc1cc(C2c3c(oc4ccccc4c3=O)C(=O)N2Cc2ccc3c(c2)OCO3)ccc1O (stereo not given) the results were PINK1 modulator 0.2% and ClpP mod -0.4%.
Screening COC(=O)c1cc2sccc2n1CC(=O)Nc1cc(Cl)ccc1OC returned PINK1 modulator 1.4% and ClpP mod -11%.
For CC(CNC(=O)CCc1cn(Cc2ccccc2Cl)c2ccccc12)c1ccccc1 (stereo not given) the results were PINK1 modulator 0.5% and ClpP mod -19%.
`Cc1oc(-c2ccc(Cl)cc2)nc1Cn1c(=O)cc(C)c2c(C)nn(-c3cccc(F)c3)c21` gave PINK1 modulator -1.2% and ClpP mod -2.5%.
For O=C(CC(C(=O)O)n1ccnc1)c1ccc(Cl)cc1 (stereo not given) the results were PINK1 modulator 0.4% and ClpP mod 0.7%.
`CCCCn1c(SCc2ccccc2C#N)nc2c(sc3ccccc32)c1=O` gave PINK1 modulator -0.7% and ClpP mod -12%.
CC1CCc2c(sc3nnn(Cc4ccc(F)cc4)c(=O)c23)C1 (stereo not given) was read as PINK1 modulator 0.3% and ClpP mod -2.2%.
`CCC(=O)N1CCc2cc(S(=O)(=O)NC(C(=O)NCCc3ccc(OC)c(OC)c3)C(C)C)ccc21` (stereo not given) gave PINK1 modulator 0.5% and ClpP mod -0.8%.
Cc1ccsc1CN(C(=O)COc1ccc(Cl)cc1)C1CCS(=O)(=O)C1 (stereo not given) was read as PINK1 modulator -0.2% and ClpP mod 0.7%.
`COc1cccc(NC(CNS(=O)(=O)c2ccc(Cl)cc2)c2ccccc2)c1` (stereo not given) gave PINK1 modulator 4.2% and ClpP mod 0.6%.
`CCC1CN(CC(=O)NCc2cccc(Br)c2)c2ccccc2S1` (stereo not given) gave PINK1 modulator 3.8% and ClpP mod 1.7%.
O=C1NC[C@@H](CCCCN2C[C@H](Cc3ccccc3)N(CC3CCCCC3)C(=O)C2=O)N(Cc2ccccc2)C1=O was read as PINK1 modulator -0.7% and ClpP mod 0.5%.
Screening CCn1c(SCC(=O)c2ccc([N+](=O)[O-])cc2)nnc1-c1ccc(Cl)cc1 returned PINK1 modulator -1.4% and ClpP mod 0.0%.
For COc1ccccc1Nc1nc2ccc(Cl)cc2nc1-n1nc(C)cc1C the results were PINK1 modulator 5.0% and ClpP mod 0.9%.
COCCCNC(=O)c1ccc(Cn2c(=O)c3cccn3c3cccnc32)cc1 was read as PINK1 modulator 9.8% and ClpP mod -22%.
`O=C(CSc1ncc2c(n1)-c1ccc(Cl)cc1N(Cc1ccccc1)S2(=O)=O)Nc1ccccc1C(F)(F)F` gave PINK1 modulator 2.2% and ClpP mod -18%.
`O=C(CSc1cn(CC(=O)N2CCCCCC2)c2ccccc12)Nc1ccccc1F` gave PINK1 modulator -0.9% and ClpP mod -6.7%.
`CCOC(=O)c1oc2c(c1C)-c1nn(Cc3c(F)cccc3Cl)cc1CC2` gave PINK1 modulator 0.2% and ClpP mod 4.2%.
For CCCN1CNc2c(c(=O)[nH]c(=S)n2CCc2cccs2)C1 the results were PINK1 modulator 0.4% and ClpP mod -2.3%.
`CCCNC(=O)c1ccc2c(c1)N=C(CCC)c1ccccc1S2` gave PINK1 modulator 1.0% and ClpP mod 0.6%.
`Cc1cn(C)c(CC(=O)Nc2cccc(Cl)c2C)c1C(=O)O` gave PINK1 modulator 2.2% and ClpP mod 0.6%.
Screening COc1cccc(-n2c(SCC(=O)N3CCCc4ccccc43)nc3c([nH]c4ccccc43)c2=O)c1 returned PINK1 modulator -4.5% and ClpP mod -22%.
For NS(=O)(=O)c1ccc(CCNC(=O)CCCCCn2c(=O)[nH]c3ccccc3c2=O)cc1 the results were PINK1 modulator -0.3% and ClpP mod -18%.
For Brc1cccc[n+]1Cc1ccccc1C[n+]1ccccc1Br the results were PINK1 modulator 0.3% and ClpP mod -5.0%.
`CCCOc1ccc(NC(=O)CC2C(=O)N(c3ccc(OC)cc3)C(=O)N2CCc2ccncc2)cc1` (stereo not given) gave PINK1 modulator -0.7% and ClpP mod 0.4%.
Screening CCCN(C(=O)Cc1nc(-c2ccc(OC)cc2)no1)c1ccccc1C returned PINK1 modulator 1.7% and ClpP mod -2.3%.
`CCCc1nn2c(=O)cc(COC(=O)c3cccc(NC(=O)c4cccs4)c3)nc2s1` gave PINK1 modulator -0.9% and ClpP mod -1.4%.
CCOC(=O)c1cc(S(=O)(=O)N2CCN(c3ccc(C(C)=O)cc3)CC2)[nH]n1 was read as PINK1 modulator 0.0% and ClpP mod -6.9%.
CCOc1ccc(CCNC(=O)c2ccc(-c3nc(COc4ccc(C)cc4)c(C)o3)cc2)cc1 was read as PINK1 modulator -0.3% and ClpP mod -7.8%.
`O=S(=O)(c1ccccc1)n1nc(-c2ccc(Cl)cc2)nc1NCc1ccc(F)cc1` gave PINK1 modulator -0.2% and ClpP mod -2.1%.
`Cc1noc2ncnc(N3CCN(c4ccccc4F)CC3)c12` gave PINK1 modulator -5.7% and ClpP mod 0.7%.
Screening Cc1ccc(CN(C(=O)COc2ccc(Cl)cc2Cl)C2CCS(=O)(=O)C2)o1 (stereo not given) returned PINK1 modulator 0.3% and ClpP mod 1.9%.
For N#Cc1c(NC(=O)CS(=O)(=O)c2ccc(Cl)cc2)sc2c1CCCCC2 the results were PINK1 modulator -1.5% and ClpP mod -2.9%.
Screening CC(C)c1ccccc1NC(=O)CN(c1ccccc1)S(=O)(=O)N(C)C returned PINK1 modulator 0.2% and ClpP mod 0.3%.
Cn1nnnc1SCCNCc1ccc(OCc2ccccc2Cl)cc1 was read as PINK1 modulator 6.0% and ClpP mod -0.6%.
For CCN(c1ccccc1)S(=O)(=O)c1c(C)nc2scc(C)n2c1=O the results were PINK1 modulator 2.3% and ClpP mod -11%.
CCc1ccc(NS(=O)(=O)c2ccc(NC(=O)N3CCCC3)cc2)cc1 was read as PINK1 modulator 3.4% and ClpP mod 1.8%.

Not all compounds are listed, so the mix of outcomes need not match the whole.
